LANA-H2A inh – blocks KSHV LANA binding to histone H2A/H2B; 320,000 compounds, 0.6% hits; inhibition, % (concentration not given with the values); cell-free LANA-H2A/H2B peptide, fluorescence polarization; Q9QR71; in the data active means inhibition mostly above about 10%, no sharp cut-off; inactive means mostly below about 6.7%;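 further: stock transfer was 7.5 nL into about 10 µL; 0% = median of vehicle wells and 100% = median of positive control wells; one replicate is shown; the record names a cut of 25% in any replicate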
Target sequence (Q9QR71 whole entry, looked up): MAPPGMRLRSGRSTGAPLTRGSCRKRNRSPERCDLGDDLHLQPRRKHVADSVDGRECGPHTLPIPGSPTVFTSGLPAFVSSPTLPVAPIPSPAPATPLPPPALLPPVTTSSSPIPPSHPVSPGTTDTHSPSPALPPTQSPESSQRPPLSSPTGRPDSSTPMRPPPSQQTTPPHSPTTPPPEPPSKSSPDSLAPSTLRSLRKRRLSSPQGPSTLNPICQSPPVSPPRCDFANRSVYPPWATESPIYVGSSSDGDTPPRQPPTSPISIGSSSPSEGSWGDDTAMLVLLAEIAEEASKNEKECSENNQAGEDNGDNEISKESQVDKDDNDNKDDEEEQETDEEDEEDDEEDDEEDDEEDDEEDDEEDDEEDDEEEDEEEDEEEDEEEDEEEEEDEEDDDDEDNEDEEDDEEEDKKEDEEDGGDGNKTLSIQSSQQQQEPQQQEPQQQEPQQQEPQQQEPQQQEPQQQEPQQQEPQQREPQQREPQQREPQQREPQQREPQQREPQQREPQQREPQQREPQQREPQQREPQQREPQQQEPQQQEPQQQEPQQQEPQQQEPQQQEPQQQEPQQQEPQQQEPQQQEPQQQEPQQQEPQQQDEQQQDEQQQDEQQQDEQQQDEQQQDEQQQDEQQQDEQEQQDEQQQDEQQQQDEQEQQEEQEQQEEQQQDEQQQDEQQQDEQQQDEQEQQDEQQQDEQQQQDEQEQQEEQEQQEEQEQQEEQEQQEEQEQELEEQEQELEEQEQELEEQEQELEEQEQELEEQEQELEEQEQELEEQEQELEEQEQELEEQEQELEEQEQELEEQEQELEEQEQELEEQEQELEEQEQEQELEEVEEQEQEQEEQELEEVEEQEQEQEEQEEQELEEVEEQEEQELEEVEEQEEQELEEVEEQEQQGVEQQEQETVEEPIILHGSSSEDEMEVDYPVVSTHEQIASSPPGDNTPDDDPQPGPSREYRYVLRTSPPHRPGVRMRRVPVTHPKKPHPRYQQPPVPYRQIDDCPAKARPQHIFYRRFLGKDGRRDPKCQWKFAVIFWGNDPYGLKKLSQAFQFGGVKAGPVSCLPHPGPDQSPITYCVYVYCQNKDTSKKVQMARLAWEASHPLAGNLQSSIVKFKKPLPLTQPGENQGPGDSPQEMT
Vif A3G – HIV-1 Vif–A3G interaction blockers – biochemical, TR-FRET, GST-Vif 1-94, biotin-A3G peptide, dose response retest, primary screen (AID 1117319). TR-FRET GST-Vif / biotin-A3G peptide binding; higher % means a stronger effect; test concentration not given here; strong numbers were not always called active. inhibition, %, or IC50 in µM where a hit was titrated. 260,000 compounds, 0.57% hits;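 active means above the screen mean plus three standard deviations and confirmed in dose response; inconclusive means results disagree or hit not tested in dose response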;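 further: Vif residues 1-94 fused to GST binding biotinylated APOBEC3G peptide 110-148; 0% = full assay without inhibitor and 100% = GST in place of GST-Vif; retest series ran down from 100 µM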
HNF4A DNA FP – change in binding of human HNF4 alpha to DNA; 360,000 compounds, 0.3% hits; P41235; HNF4a-FITC DNA binding, fluorescence polarization, 1 h; activity change, % at 10 µM; in the data active means activity change above about 30%, passing the limit was not always enough;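 further: controls were the assay level and a saturating level of protein; the project sought stronger binding though the title names inhibitors; some compounds called inactive have numbers as strong as hits; positive values seem to mean higher polarization but the record does not say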
UCH37 inh – inhibitors of human deubiquitinating enzyme UCH37; purified proteasome/UCH37, Ub-AMC cleavage fluorescence; Q9Y5K5; 330,000 compounds, 0.33% hits; inhibition, % (no concentration beside the values);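 active means mean of two replicates above 20%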;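 further: 0% = compound-free wells with enzyme and 100% = wells lacking proteasome; stock transfer was 100 nL into about 20 µL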
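Material: Human UCH37 enzyme supplied as purified proteasome complex | Schedule: 30 min compound-proteasome preincubation then 25 min substrate reaction, room temperature | Detection: AMC fluorescence from Ub-AMC cleavage, excitation 355 nm, emission 460 nm | Benchmarks: Wells without proteasome as full block, compound-free enzyme plus substrate as uninhibited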
B2AR ag – agonists of human beta-2 adrenergic receptor inducing internalization; response, % (no concentration beside the values); P07550; Am2.2-beta2AR cells, FAP receptor internalization, flow cytometry; reference of the scale not given here; 340,000 compounds, 0.43% hits; AID 504454;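 active means response above a set limit, near 3 SD of response in nonfluorescent compounds, cut at about 42% in these data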;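 further: stock transfer was 100 nL into about 11 µL; a reference agonist was the positive control; negative values mostly stem from fluorescent compounds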
Bfl-1 A1 inh – inhibitors of the anti-apoptotic protein A1, read as caspase activation; 330,000 compounds, 0.066% hits; AID 2462; MEF A1-2A-BIM cells, Caspase-Glo 3/7 luminescence, 3 h; percent of clofoctol response, vehicle zero; caspase activation, % (test concentration not listed);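 active means over half of replicate activation scores above 10%, or exactly half above 10 with the replicate mean above 10; inconclusive means replicate mean below 10 yet half the replicates above 10; inactive means over half of replicates below 10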;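 further: wells of about 30 µL received 50 nL stock; many hits fall short of the cut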
Ecoli growth – inhibitors of Escherichia coli growth. 330,000 compounds, 0.21% hits. OD600, 23 h; active compounds read low. OD600 absorbance (no concentration beside the values);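 active means OD600 absorbance below the run mean of sample wells minus 3.6 SD, in any replicate, cut at about 0.56 in these data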;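 further: stock transfer was 300 nL into about 60 µL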
* = called active by the depositor; ? = inconclusive; / = no result given.

Second line of a record – Ecoli growth | UCH37 inh | Vif A3G | LANA-H2A inh | Bfl-1 A1 inh | HNF4A DNA FP | B2AR ag
O=C(O)c1cc([N+](=O)[O-])c(NCCC2=CCCCC2)c([N+](=O)[O-])c1
→ 0.62 | 7.9 | / | 3.5 | 1.8 | 2.8 | 2
S=c1[nH]nc(Cc2n[nH]c(=S)n2-c2ccccc2)n1-c1ccccc1
→ 0.62 | 1.0 | 1% | 0.9 | 0.2 | 0.3 | 4
O=C(CCCN1C(=O)/C(=C/c2cccs2)SC1=S)NNC(=O)c1cccnc1
→ 0.67 | 7.8 | / | 4.2 | -1.0 | 8.6 | -12
C#CCOCCOCCOCCNc1nc(N2CCN(C(=O)Cn3cc(CCCN=C(N)N)nn3)CC2)nc(N2CCN(C(=O)[C@H]([C@@H](C)CC)n3cc(CCCCN)nn3)CC2)n1
→ / | -0.3 | / | 3.1 | 0.0 | 5.5 | 3
COc1ccc(N2C(=O)CCC(C(=O)N3CCN(c4ccccn4)CC3)C2c2ccc(F)cc2)cc1 (stereo not drawn)
→ 0.71 | 0.6 | -1% | -4.7 | 0.2 | 1.6 | -13
O=C(O)COc1c(-c2ccco2)oc2ccccc2c1=O
→ 0.64 | -177 | -4% | -0.5 | 0.1 | -3.0 | 10
CC(C)CN(CCNC(=O)CN1C(=O)CSc2ccc(S(=O)(=O)N3CCOCC3)cc21)CC(C)C
→ 0.71 | 3.1 | 23% | 0.7 | 0.7 | 1.1 | 2
CC(Sc1ccc(Cl)cc1)C(=O)NCC1CCCO1 (stereo not drawn)
→ 0.77 | 1.6 | 8% | -5.3 | -1.0 | 1.5 | -1
Cc1cccc(/C(N)=N/OC(=O)CCC2CCCCC2)c1
→ 0.71 | 2.7 | -1% | 3.2 | 0.6 | 0.9 | 1
Cc1ccc(S(=O)(=O)N2CCN(C(=O)c3ccc(N4CCC(C)CC4)c([N+](=O)[O-])c3)CC2)cc1
→ 0.75 | 3.6 | / | / | / | 1.9 | -4
CCOC(=O)N1CCN(C(=O)c2cnn3c(C)c(Cc4ccc(C)cc4)c(C)nc23)CC1
→ 0.66 | -82 | -5% | 4.3 | -0.5 | 0.8 | -5
CCCNC(=O)CSc1nc(-c2cccs2)cc(C(F)(F)F)n1
→ 0.71 | -1.8 | -1% | 1.0 | 0.1 | -2.9 | -14
CCn1c(O)c2ccc(C(=O)N=NC(=O)c3cccnc3)cc2c1O
→ 0.74 | -0.6 | 6% | / | / | 0.4 | 3
O=C(Nc1cccnc1)c1ccc(CSc2ccccc2)cc1
→ 0.68 | 5.1 | 8% | 1.3 | -5.1 | 1.3 | 2
O=C(O)Cn1nnc(COc2ccccc2)n1
→ 0.65 | 0.3 | / | 7.0 | 0.0 | 4.3 | 6
Cc1c(C(=O)Nc2cccc([N+](=O)[O-])c2)cnn1-c1ccccc1
→ 0.66 | 4.3 | 7% | -3.4 | -5.6 | -3.9 | 7
COc1ccc(-c2cc(=O)[nH]c(=S)[nH]2)cc1
→ / | / | -11% | -1.1 | -0.6 | -0.2 | -3
O=c1oc(-c2ccccc2F)nc2c1cnn2-c1ccccc1
→ 0.64 | -16 | -2% | -2.8 | 0.4 | -0.4 | 5
COc1ccccc1NC(=O)c1cc[n+]([O-])cc1
→ 0.66 | 2.2 | / | -1.4 | 1.0 | -1.5 | 4
CCCN1C2CCCC1CC(NC(=S)Nc1cccc(C)c1)C2 (stereo not drawn)
→ 0.68 | 0.4 | -1% | -2.3 | -0.4 | 6.6 | -1
CCc1nc2ccc(C(=O)N3CCN(c4cccc(C)c4C)CC3)cc2nc1CC
→ 0.71 | 3.0 | 2% | 4.1 | 0.1 | 1.4 | /
CCOC(=O)c1nn(-c2ccc(F)cc2)c2nc(Nc3ccccc3)cc(=O)n12
→ 0.74 | -9.7 | -7% | 1.0 | 1.0 | -2.2 | 6
CCCCn1nc(C(=O)N2CCc3ccccc32)c2ccccc2c1=O
→ 0.65 | 3.3 | ? | 0.8 | 1.2 | 4.1 | -16
CCOC(=O)c1cccc(NC(=O)/C(=C\c2ccccc2)NC(=O)c2ccccc2Cl)c1
→ 0.66 | -3.7 | -5% | 1.3 | 0.9 | 1.2 | 8
CC(C)Oc1ccc(OCCSc2nc3ccccc3n2CC(=O)O)cc1
→ 0.69 | -1.6 | / | -4.7 | 0.2 | 1.3 | -2
CC(=NCC1CCNCC1)C1=C(O)CC(C)(C)CC1=O
→ 0.77 | -4.2 | -4% | 1.3 | -0.9 | 1.3 | 0
COc1cccc(CN2CCN(C(=O)c3cccc4ccccc34)CC2)c1OC
→ 0.71 | 1.2 | 28% | -2.4 | 0.5 | -2.3 | 5
O=C(CC1N=C2c3ccccc3N=C(SCc3ccccc3Cl)N2C1=O)NCc1ccco1 (stereo not drawn)
→ 0.7 | -11 | 17% | -1.9 | -0.4 | 3.1 | -12
Cc1nc(N2CCN(c3ccccn3)CC2)c2c(C)c(C(=O)Nc3ccc(F)c(Cl)c3)sc2n1
→ 0.68 | -95 | -5% | -2.9 | 0.5 | 4.4 | 16
CCOC(=O)C1=C(C)N(CCO)C(=O)NC1c1cccc(O)c1 (stereo not drawn)
→ 0.75 | 5.0 | 10% | -7.8 | -0.3 | -2.0 | 1
CCOc1ccccc1NC(=O)COC(=O)Cc1cccs1
→ 0.67 | -0.4 | -1% | -2.3 | 0.8 | -3.9 | -7
CN1CCN(c2ccc(S(=O)(=O)N3CCCCC3)cc2NC(=O)COc2ccc(F)cc2)CC1
→ 0.66 | -4.0 | -1% | 1.5 | 0.0 | 3.1 | 0
CCC(Sc1nc2sc(C(=O)OC)c(C)c2c(=O)n1N)C(=O)N(CC)CC (stereo not drawn)
→ 0.73 | -42 | -10% | 3.9 | 0.2 | 2.3 | -4
Cc1onc(-c2ccccc2)c1C(=O)NC(C)CCc1ccccc1 (stereo not drawn)
→ 0.67 | 1.6 | / | -1.8 | 0.6 | -1.0 | -6
Cc1cccnc1NC(=S)NCCc1ccccc1
→ 0.65 | 4.7 | 9% | 1.2 | 0.2 | -3.4 | 6
COc1ccc(NC(=O)CN(C)CCOc2ccc(Cl)cc2)cc1OC
→ 0.67 | 0.9 | 3% | 3.8 | 0.4 | 1.8 | -1
O=c1[nH]c2ccc(Cl)cc2c(O)c1Cc1ccccc1
→ 0.7 | -28 | -1% | -1.0 | 0.3 | 2.0 | -6
CCOP(=O)(c1c(F)c(F)c(F)c(F)c1F)C1(O)CCCCC1 (stereo not drawn)
→ 0.78 | 2.9 | -2% | -1.7 | 0.0 | 0.0 | -2
Cc1ccc(N(C(=O)Cn2nnc(-c3ccc(F)cc3)n2)C(C(=O)NC(C)(C)C)c2ccncc2)cc1 (stereo not drawn)
→ 0.7 | 0.2 | -3% | 2.1 | -0.8 | 2.9 | 1
CNc1nc(-c2ccc3c(c2)CCN3C(=O)c2ccccc2F)c(C)s1
→ 0.62 | 5.0 | / | -1.3 | -1.4 | 7.3 | -1
COc1ccc(CCC(=O)NCC2CCCCC2)cc1OC
→ 0.71 | 4.6 | 11% | 0.6 | 0.6 | -0.1 | -4
COCCCN1CC(=O)N2C(c3cccc(OC)c3OC)c3[nH]c4ccccc4c3C[C@H]2C1=O (stereo partly drawn)
→ 0.69 | 3.4 | 2% | 1.5 | 1.0 | 0.5 | 5
N#Cc1cccc(NC(=O)CNC(=O)Cc2ccccc2)c1
→ 0.66 | 3.4 | 1% | -4.0 | 0.8 | 0.1 | 7
COCCNC(=O)c1onc(CSc2cc(C)cc(C)c2)c1C(=O)NCCOC
→ 0.71 | -0.5 | 19% | 3.2 | 0.1 | -5.6 | 4
Cc1[nH]c(=O)c(C#N)c(C)c1Br
→ 0.66 | 1.6 | 0% | -2.2 | 0.4 | -0.9 | 0
CC(=O)c1ccc(N2CCN(S(=O)(=O)c3cccc4nsnc34)CC2)cc1
→ 0.66 | 1.4 | 22% | -2.5 | 0.2 | -2.2 | -1
CN(C1(C)CCS(=O)(=O)C1)S(=O)(=O)c1ccc2ccccc2c1 (stereo not drawn)
→ 0.63 | 2.8 | / | 0.3 | 0.1 | -4.2 | -6
CCOc1ccccc1CNC(=O)C1CCCN(c2nnc(C)c3c(C)n(-c4ccccc4)nc23)C1 (stereo not drawn)
→ 0.69 | -70 | / | 1.6 | -0.6 | 18 | 8
CCOC(=O)C(Cc1ccc(OC)c([N+](=O)[O-])c1)NC(=O)CCC(=O)Nc1ccc(C)cc1 (stereo not drawn)
→ 0.72 | 1.2 | / | -6.4 | 0.0 | 2.5 | -1
O=C(CCCCCn1c(=O)[nH]c2ccsc2c1=O)NCc1ccc(F)cc1
→ 0.67 | 0.7 | 0% | 2.6 | -0.3 | -1.2 | 109*
Cc1cc(C(C)(C)C)c(O)c(C)c1CC1=NCCN1
→ 0.69 | 3.7 | 9% | -12 | 0.9 | 2.9 | -6
COc1ccc(S(=O)(=O)N(C)CC(=O)Nc2ccccc2C(F)(F)F)cc1OC
→ 0.71 | 1.9 | -3% | -2.5 | -1.2 | -2.8 | 2
CC1CC(C)CN(C(=O)COC(=O)c2ccc3c(c2)OCCO3)C1 (stereo not drawn)
→ 0.7 | -1.9 | -4% | 3.6 | -1.0 | -0.1 | -16
Cc1c(NC(=O)c2ccc(-c3cccc([N+](=O)[O-])c3)o2)c(=O)n(-c2ccccc2)n1C
→ 0.69 | 0.9 | 12% | 9.7 | 0.5 | 2.6 | -3
Cc1cc(C)n(-c2nc3ccccc3nc2N2CCOCC2)n1
→ 0.7 | 10 | -13% | -3.0 | 0.2 | 0.6 | 2
Cc1c(NC(=O)Nc2cccc(C#N)c2)c(=O)n(-c2ccccc2)n1C
→ 0.67 | 5.5 | -10% | 1.5 | 0.1 | 6.8 | -34
CC(C)(C)NS(=O)(=O)c1ccc(OCC(=O)NCc2ccco2)cc1
→ 0.71 | 4.7 | 12% | 3.7 | 1.0 | -0.5 | -1
O=C(c1cc([N+](=O)[O-])ccc1N1CCOCC1)N1CCN(c2ccccc2)CC1
→ / | / | / | -2.8 | 1.5 | 0.9 | 20
CCOC(=O)N1CCN(S(=O)(=O)c2ccc(F)c(C(=O)Nc3cccc(Cl)c3C)c2)CC1
→ 0.7 | 2.7 | 9% | 1.4 | -0.7 | -3.5 | -6
CC1CCCCN1C(=O)CSc1nnc(-c2ccco2)o1 (stereo not drawn)
→ 0.66 | -4.6 | / | -2.8 | 0.4 | -3.1 | -2

The list continues:
Second line of a record – Ecoli growth | UCH37 inh | Vif A3G | LANA-H2A inh | Bfl-1 A1 inh | HNF4A DNA FP | B2AR ag
COc1ccc(CC(=O)Nc2nc(-c3ccccc3)c(C(C)=O)s2)cc1OC
→ 0.68 | 6.6 | / | 0.8 | -0.3 | 2.0 | -13
COc1cccc(-c2nnc(N(C)C(=O)c3ccno3)s2)c1
→ 0.68 | -30 | 4% | / | / | / | /
Cc1noc(C)c1COc1ccc(C(=O)O)cc1
→ 0.65 | 1.2 | -9% | 5.0 | 0.0 | 1.6 | 2
C[C@]12C(=O)N(c3ccc(Cl)cc3)C(=O)N1[C@H]1c3ccccc3OC[C@@H]1[C@H]2c1ccccc1
→ / | 0.4 | / | -1.7 | 0.6 | -2.2 | 4

Given field by field: 2 of the compounds above.
Compound: COc1ccc(CC(=O)Nc2nc(-c3ccccc3)c(C(C)=O)s2)cc1OC
  Ecoli growth: 0.68 | UCH37 inh: 6.6 | Vif A3G: / | LANA-H2A inh: 0.8 | Bfl-1 A1 inh: -0.3 | HNF4A DNA FP: 2.0 | B2AR ag: -13
Compound: Cc1cc(C(C)(C)C)c(O)c(C)c1CC1=NCCN1
  Ecoli growth: 0.69 | UCH37 inh: 3.7 | Vif A3G: 9% | LANA-H2A inh: -12 | Bfl-1 A1 inh: 0.9 | HNF4A DNA FP: 2.9 | B2AR ag: -6

No enrichment for hits, and some 2.1% of all compounds hit somewhere here.
